# Cruzain Triton: qHTS Assay for Promiscuous and Specific Inhibitors of Cruzain (with detergent) | Cruzipain (Trypanosoma cruzi), P25779 | purified cruzain, Z-FR-AMC fluorescence, 0.01% Triton | Potency, µM, inactives show max response, negative = inhibition, hits mostly inhibitors | 0.43% of 200,000 active | AID 1478, 2009; active means well fitted curve in the direction sought with a large enough effect; inconclusive means small, poorly fitted or top-dose-only effect, or another doubt; inactive means no such curve, though single readings can be large; an effect the other way counts as inactive or inconclusive;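 further: plate controls were neutral wells for no effect and buffer without enzyme for full effect; nearly all actives have a fitted effect of over 40% in size; top concentration of the series not given in the record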
# Target sequence (P25779 123-467 limits assumed): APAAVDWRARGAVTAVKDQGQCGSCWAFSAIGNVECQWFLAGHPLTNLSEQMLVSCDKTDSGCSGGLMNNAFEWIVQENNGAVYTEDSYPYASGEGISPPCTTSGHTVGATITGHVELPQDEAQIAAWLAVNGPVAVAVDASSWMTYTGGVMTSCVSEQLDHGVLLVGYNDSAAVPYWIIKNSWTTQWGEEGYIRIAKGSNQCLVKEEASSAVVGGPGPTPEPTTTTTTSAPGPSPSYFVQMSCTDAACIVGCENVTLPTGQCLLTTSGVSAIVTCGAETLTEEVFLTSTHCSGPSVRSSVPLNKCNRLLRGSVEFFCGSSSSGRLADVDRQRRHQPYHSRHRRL
#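 Read-out: AMC fluorescence (360 nm excitation, 450 nm emission), four reads over 2 min, first-to-third difference used. Conditions: cruzain 1.5 nM, Z-FR-AMC 2 uM, pH 5.5 acetate, 5 mM DTT, 0.01% Triton X-100.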
# 2A StopGo: High Throughput Screening for Foot and Mouth Disease Virus Antivirals | human cells with a luciferase reporter of 2A StopGo recoding; control for the full effect not named in the record | Potency, µM (series often up to 57.9 µM), for inactives: at the top dose signal change, negative = less light | 1.2% of 410,000 active; active = well fitted falling curve with a large enough effect; inconclusive = small, poorly fitted or top-dose-only effect; inactive = no such curve, though single readings can be large or run the other way; tested in HEK293T cells; further: on the % scale 0 is the no-effect control and ±100 the full control effect; nearly all actives have a fitted effect of over 45% in size; luciferase light after 4 h
# RE007 growth inh: qHTS Assay for Inhibitors of the HIV-1 protein Vpr | S. pombe RE007 Vpr strain, BacTiter-Glo ATP luminescence, 24 h; control for the full effect not named in the record | Potency, µM (top dose mostly 92.2 µM), inactives show top-dose activity change, negative = less growth | 0.21% of 360,000 active; active = well fitted falling curve with a large enough effect; inconclusive = small, poorly fitted or top-dose-only effect; inactive = no such curve, though single readings can be large or run the other way;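 further: on the % scale 0 is the no-effect control and ±100 the full control effect; nearly all actives have a fitted effect of over 50% in size; the assay follows cell death caused by Vpr and the record does not say whether a fall means rescue or toxicity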
#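 Fission yeast strain RE007, carrying one chromosomally integrated HIV-1 vpr copy, was seeded at OD 0.01 in PMG+AL medium with 23 nL pinned compound. After 24 h at 30 °C and 99% humidity, viability was read by BacTiter-Glo luminescence.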
# NS1 inh: qHTS Assay for Inhibitors of Influenza NS1 Protein Function | S. cerevisiae slowed by influenza A NS1, growth recovery by OD600 | Potency, µM (titrated, usually from 46.1 µM), for inactives: top-dose activity, positive = more growth | 0.4% of 270,000 active | AID 2326, 2010; further: actives are rising curves; nearly all actives have a fitted effect of over 50% in size
#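 Compounds were scored for reversing the slow growth caused by influenza A NS1 in S. cerevisiae, measured by optical density at 600 nm. Assay medium contained 2% galactose at pH 6.0; NS1-free yeast of the same strain were the positive control.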
# MARV entry inh: qHTS for inhibitors of binding or entry into cells for Marburg Virus | AID 540276, 2011 | Potency, µM (highest dose often 37.8 µM), inactives show at the highest dose activity change, negative = inhibition, usual class: inhibitors | 1.8% of 300,000 active | Marburg virus pseudotyped entry inhibition, cell reporter; control for the full effect not named in the record; about a third of the inactives were read at about 46 µM; active = well fitted inhibition curve with a large enough effect; inconclusive = small, poorly fitted or top-dose-only effect, or effect the other way; inactive = flat fitted curve, though single readings scatter; tested in HEK293 cells; about a fifth of its hits are not listed in these tables; further: on the % scale 0 is the no-effect control and ±100 the full control effect; luciferase read-out
# Cruzain inh noDet: qHTS Assay for Promiscuous and Specific Inhibitors of Cruzain (without detergent). Cruzipain (Trypanosoma cruzi), P25779. purified cruzain, Z-FR-AMC fluorescence, no detergent. Potency, µM, inactives show max response, negative = inhibition, actives largely listed as inhibitors. 2.3% of 200,000 active; active means well fitted curve in the direction sought with a large enough effect; inconclusive means small, poorly fitted or top-dose-only effect, or another doubt; inactive means no such curve, though single readings can be large; an effect the other way counts as inactive or inconclusive;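 further: plate controls were enzyme without inhibitor for no effect and buffer without enzyme for full effect; nearly all actives have a fitted effect of over 40% in size; top concentration of the series not given in the record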
#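 Purified cruzain at 1.5 nM, pre-incubated 15 min with compound at room temperature in 100 mM sodium acetate pH 5.5, 5 mM DTT, 0.00005% Triton X-100. Reaction started with 2 uM Z-FR-AMC; AMC fluorescence increase over 60 s gives rate.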
# SARS PLP yeast: qHTS of Yeast-based Assay for SARS-CoV PLP. Potency, µM (highest dose often 32.9 µM), inactives show at the highest dose activity, positive = growth rescue. S. cerevisiae expressing SARS-CoV PLpro, growth rescue; control for the full effect not named in the record. 0.19% of 330,000 active. AID 485353, 2010; further: 0% is about no effect; nearly all actives have a fitted effect of over 55% in size; growth read by luminescence after 48 h
# Lassa entry inh: qHTS for Inhibitors of binding or entry into cells for Lassa Virus; 1.2% of 300,000 active; Potency, µM (doses to about 37.9 µM), for inactives: top-dose activity change, negative = inhibition, most hits filed as inhibitors; Lassa virus pseudotype entry inhibition, cell reporter; control for the full effect not named in the record; AID 540256, 2011; active means well fitted inhibition curve with a large enough effect; inconclusive means small, poorly fitted or top-dose-only effect, or effect the other way; inactive means flat fitted curve, though single readings scatter; tested in HEK293 cells; further: on the % scale 0 is the no-effect control and ±100 the full control effect; nearly all actives have a fitted effect of over 50% in size; luciferase read-out
# * marks the source's active call; other numbers are inactive results; ? = inconclusive; . = no result given; & = joins results of further samples; [ ] = dose if it differs, or a comment. Unless noted, the call rests on the fitted dose curve; in most records, active means well fitted rising curve with a large enough effect; inconclusive means small, poorly fitted or top-dose-only effect; inactive means no such curve, though single readings can be large or run the other way. Potency means the concentration at half of the fitted maximal effect. Compounds as they come. Share with any hit: about 4.7%.
SMILES,Cruzain Triton,2A StopGo,RE007 growth inh,NS1 inh,MARV entry inh,Cruzain inh noDet,SARS PLP yeast,Lassa entry inh
Cc1oc(-c2ccccc2F)nc1CS(=O)CC(=O)NCc1ccc(Cl)cc1 (stereo unspecified),.,-6%,-7%,?,?,.,-2%,-10%[46.1 µM]
O=C(CN1C(=O)C2C3C=CC(C3)C2C1=O)NCc1ccccc1 (stereo unspecified),10%,-3%,0%,4%,2%,2%,?,7%
O=C(Sc1n[nH]c(=O)[nH]c1=O)c1ccccc1,.,-1%,11%,.,10%,.,.,18%
CCOC(=O)N1CCN(S(=O)(=O)c2ccc3c4c(cccc24)C(=O)N3)CC1,.,-25%,0%,9%,?,.,?,-5%
CC(C)(C)NC(=O)CN(C(=O)C1(C)CC(=O)N=C2C=CC=CN21)C1CCCC1 (stereo unspecified),-3.5%,-13%,16%,1%,20%,-3%,2%,4%
CC(C)C1O/C(=N/C(=O)Nc2ccc(Cl)c(Cl)c2)NC1=O (stereo unspecified),-10%,-1%,-6%,-90%,-6%,-14%,-39%,-13%
O=C(COC(=O)C1CCCO1)Nc1cccc(C(F)(F)F)c1 (stereo unspecified),0.3%,6%,10%,-8%,6%[46.1 µM],?,-1%,?
COc1cc(/C=C/C(=O)OCC(=O)c2ccc3c(c2)NC(=O)CO3)ccc1OC(F)F,.,0%,-4%,.,3%[46.1 µM],.,1%,-12%
CSc1cccc(NC(=O)CN(C)S(=O)(=O)c2ccccc2)c1,-0.5%,.,7%,-5%,14%,-2%,-2%,4%
COc1ccc(NC(=O)C2CC(=O)OC2(C)C)cc1 (stereo unspecified),-0.9%,.,15%,8%,7%,4%,-6%,-23%
CCN(CC(=O)Nc1ccc(OC)cc1)CC(=O)Nc1cccc(C#N)c1,.,-8%,29%,-7%,.,.,-1%,.
O=C(NCc1ccco1)/C(=C/C=C\c1ccccc1)NC(=O)c1ccc(Br)o1,-11%,35%[activator],.,5%,?,-17%,4%,?
O=C(CSc1cn[nH]n1)Nc1ccc(Cl)cc1Cl,.,9%,5%,1%,2%[46.1 µM],.,0%,0%[46.1 µM]
CCOC(=O)c1sc(=NC(=O)c2ccc(Cl)s2)n(C)c1C,.,25%,-4%,2%,12%,.,-1%,0%
COc1ccc(NC(=O)CSc2nnc(NC(=O)C3CC3)s2)cc1OC,.,1%,-1%,-4%,23%,.,-1%,4%
CCC(=O)N1CCc2cc(Br)cc(S(=O)(=O)CCC(=O)NCc3cccc(OC)c3)c21,-1.9%,-4%,.,.,1%[46.1 µM],-2%,.,28%[46.1 µM]
COc1ccccc1N(CC(=O)NCCSC(C)(C)C)S(C)(=O)=O,0.0%,.,0%,7%,7%,1%,0%,-1%
COc1ccccc1C(=O)NCCCNc1ccc([N+](=O)[O-])cc1,-3.3%,4%,-9%,-3%,-2%,6%,-14%,1%
Cc1ccc(Cn2c(=O)n(Cc3nc(-c4ccccc4)no3)c(=O)c3cc4c(cc32)OCO4)cc1,-2.5%,-18%,.,.,.,-2%,.,16%[46.1 µM]
CC(C)(C)C(=O)COC(=O)CNC(=O)c1ccc(Oc2ccccc2)cc1,-10%,5%,11%,-67%,29%,-3%,10%,3%
COc1ccc(NC(=O)CSc2nnnn2C2CC3C=CC2C3)cc1 (stereo unspecified),.,12%,-8%,-2%,.,.,-2%,.
CCCCN(C(=O)CSc1nnc(Nc2ccccc2)s1)c1c(N)n(CCC)c(=O)[nH]c1=O,.,12%,2%,-8%,-7%,.,-5%,7%
COc1ccc(Cc2nnc(NC(=O)c3c(-c4ccccc4)noc3C)s2)cc1OC,-4.1%,.,.,-49%,6%,?,-8%,-4%
COc1ccc(C(=O)n2cnnc2N)cc1,2.0%,17%,-17%,-15%,?,7%,-2%,?
Cc1ccc(-c2nnc(Nc3cccc(C(F)(F)F)c3)c3ccccc23)cc1S(=O)(=O)N1CCOCC1,-3.3%,-17%,.,.,.,2%,.,-9%[46.1 µM]
COc1ccc(C(Nc2cccc([N+](=O)[O-])c2)P(=O)(OC(C)C)OC(C)C)cc1 (stereo unspecified),.,?,9%,-8%,.,.,-2%,.
CCc1ccccc1NC(=S)N(CCN1CCOCC1)C1CCN(C(C)=O)CC1,.,-9%,-5%,.,?,.,-2%,1%[46.1 µM]
CC(Cc1ccccc1)NC(=O)CCCN1C(=O)c2ccccc2C1=O (stereo unspecified),.,0%,1%,-2%,.,.,1%,.
CC(=O)Nc1cccc(NC(=O)c2ccccc2OCc2c(C)noc2C)c1,.,7%,-1%,.,-1%,.,-1%,5%
CSC(=NNC(=O)c1ccccc1O)SC,-2.6%,13%,-22%,-162%,16%,-14%,-41%,13%
Cc1c(Cc2ccccc2)c(=O)oc2c(C)c(OCC(=O)NCC3CCC(C(=O)O)CC3)ccc12 (stereo unspecified),.,-13%,-9%,-20%,.,.,5%,.
C=C(C)C1CC=C(C)C(=NNC(=O)c2ccncc2)C1 (stereo unspecified),.,-4%,3%,.,23%[46.1 µM],.,.,4%[46.1 µM]
COC(=O)C(NC(=O)CCC(=O)NC(C(=O)OC)c1ccccc1)c1ccccc1 (stereo unspecified),.,-6%,-16%,11%,.,.,5%,.
C=CCNC(=O)c1onc(CSc2ccc(Cl)cc2)c1C(=O)O,1.3%,-9%,-3%,-12%,.,-3%,3%,.
O=C(Nc1ccccc1C(F)(F)F)c1ccc2oc(=O)c(S(=O)(=O)c3ccc(F)cc3)cc2c1,-2.0%,28µM*,.,.,2%[46.1 µM],0%,.,-12%[46.1 µM]
CC(C)Cn1cc(C(=O)NC2CCN(Cc3ccccc3)CC2)c2c3ccccc3n(C)c2c1=O,4.5%,.,.,6%,.,6%,3%,.
CC(=O)Nc1cc(C(=O)N2CCC3(CC2)OCCO3)ccc1Sc1ccc(C)cc1,0.4%,54%[activator],9%,-4%,4%,?,3%,-2%
Cc1cccc(C(=O)NCC(=O)NC(C)c2ccc(-n3ccnc3)cc2)c1 (stereo unspecified),.,-10%,3%,.,6%,.,0%,9%[46.1 µM]
COc1ccc(NC(=O)CSc2nnc(Cc3cccn3C)n2-c2ccc(OC)cc2)cc1,-1.3%,2%,1%,7%,-9%&-9%,16%,-4%,-8%
CCOc1ccc(-n2c(O)c(/C=N/NC(=O)C3COc4ccccc4O3)c3ccccc3c2=O)cc1 (stereo unspecified),-7.3%,-11%,-8%,?,-1%,14%,11µM*,-22%
CCOC(=O)c1ccccc1NC(=O)c1sc2nc3n(c(=O)c2c1C)CCCC3,-1.9%,-7%,.,.,.,6%,.,?
COc1cccc(C(=O)Nc2cccc(NC(=O)c3ccccc3Cl)c2)c1,.,-9%,-6%,-13%,.,.,-3%,.
S=C(NCCN1CCOCC1)Nc1ccc(Cl)cc1Cl,0.6%,40%[activator],19%,-4%,6%,-5%,-2%,9%
CCOC(=O)NC(NC(=S)Nc1ccccc1OC)C(Cl)(Cl)Cl (stereo unspecified),-28%,-20%,35%,2%,-9%,-11%,27%,-3%
COc1ccc(CCC(=O)NCCc2ccc(Cl)cc2)cc1,.,4%,9%,-19%,3%[46.1 µM],.,-2%,-14%
OCCn1c(SCCOc2ccccc2F)nc2ccccc21,2.0%,-9%,7%,-7%,-5%,-4%,1%,0%
O=C(c1ccc2c(c1)N(Cc1ccccc1)C(=O)c1ccccc1S2(=O)=O)N1CCCCCC1,-1.8%,23%,.,.,-24%[46.1 µM],-1%,.,?
COc1cccc(-c2nnc3n2N=C(c2cc(OC)ccc2OC)CS3)c1,-6.2%,-8%,3%,6%,?,?,3%,?
O=C(COc1ccccc1[N+](=O)[O-])Nc1cc(Cl)ccc1C(=O)O,.,-2%,-10%,4%,?,.,3%,-5%
O=S(=O)(Nc1ncccn1)c1ccc(F)cc1,.,-8%,-15%,-3%,21%,.,-3%,22%
# Next records follow.
SMILES,Cruzain Triton,2A StopGo,RE007 growth inh,NS1 inh,MARV entry inh,Cruzain inh noDet,SARS PLP yeast,Lassa entry inh
CC1CCN(S(=O)(=O)c2ccc(Cl)cc2)CC1,-0.1%,-5%,8%,-5%,1%,-4%,6%,-14%
CC(=O)N1CCC(O)(c2ccc3c(c2)OCO3)CC1,.,-12%,-4%,11%,23%[46.1 µM],.,-2%,5%[46.1 µM]
COc1ccc(-c2nc(SCC(=O)NC3CCCC3)c(-c3ccc(F)cc3)[nH]2)cc1OC,-8.8%,-19%,.,.,?,?,.,-17%[46.1 µM]
CCN(CC)CC(=O)N1CCCC(N2CCN(c3cccc(C(F)(F)F)c3)CC2)C1 (stereo unspecified),.,11%,-14%,7%,.,.,1%,.
CCOC(=O)c1cccnc1NC(=O)c1ccncc1,0.7%,7%,-5%,2%,-1%,6%,-1%,?
Cc1nc2c(-c3ccc(F)cc3)c(C)nn2c(C)c1CCC(=O)N1CCC2(CC1)OCCO2,-2.9%,6%,2%,-12%,2%&2%,?,-1%,?
COc1ccc(CC(=O)NC(C)c2ccc(S(N)(=O)=O)cc2)cc1S(=O)(=O)N1CCOCC1 (stereo unspecified),.,-4%,5%,4%,0%,.,1%,2%
Cn1c(-[n+]2c(-c3ccccc3)cc(-c3ccccc3)cc2-c2ccccc2)nc2c([N+](=O)[O-])cccc21,-14%,-4%,7%,-30%,?,4%,1%,?
O=C(Nc1cccc(S(=O)(=O)N2CCCC2)c1)c1cccc(OC(F)F)c1,.,-4%,8%,.,?,.,4%,-7%

# From PubChem BioAssay
